PKD1 inh = PKD1 (human) kinase inhibition. Q15139. PKD1 kinase fluorescence polarization assay. inhibition, %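 (about 10 µM by stock and volumes)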. actives 0.056% (n = 200,000);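 active means inhibition of 50% or more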;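 further: controls were vehicle for no effect and a reference inhibitor for full effect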
INS promoter inh = TRM-6 insulin promoter activity inhibition; TRM-6 cells (human fetal islet line), insulin promoter-eGFP reporter, imaging; reporter expression induced with tamoxifen; inhibition, % at 2 µM; actives 0.9% (n = 130,000);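 active means inhibition above the mean plus 3 SD, with well images judged a real hit on visual review, cut at about 60% in these data, passing the limit was not always enough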
HSV augment = increases HSV replication in cells. HSV replication augmentation in cells, fold increase. maximum fold increase. actives 0.005% (n = 220,000);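 active means peak rise of 1.5-fold or more in the series; tested in PC3 cells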;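 further: first round at 10 µM; read as green reporter fluorescence; hits show the peak of a series up to 25 µM; 1 = signal of infected wells without compound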
GALR2 ag = GALR2 (human) receptor agonism | actives 0.48% (n = 140,000) | GALR2-expressing cells, agonist activation read-out | activation, %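 (tested at 5 µM)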 | AID 803 | O43603;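 active means above mean plus 3 SD of all compounds, about 5% in these data, not always enough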;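 further: 0% = vehicle buffer wells and 100% = reference agonist at full effect; tested in CHO reporter cells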
Target sequence (O43603 whole entry, looked up): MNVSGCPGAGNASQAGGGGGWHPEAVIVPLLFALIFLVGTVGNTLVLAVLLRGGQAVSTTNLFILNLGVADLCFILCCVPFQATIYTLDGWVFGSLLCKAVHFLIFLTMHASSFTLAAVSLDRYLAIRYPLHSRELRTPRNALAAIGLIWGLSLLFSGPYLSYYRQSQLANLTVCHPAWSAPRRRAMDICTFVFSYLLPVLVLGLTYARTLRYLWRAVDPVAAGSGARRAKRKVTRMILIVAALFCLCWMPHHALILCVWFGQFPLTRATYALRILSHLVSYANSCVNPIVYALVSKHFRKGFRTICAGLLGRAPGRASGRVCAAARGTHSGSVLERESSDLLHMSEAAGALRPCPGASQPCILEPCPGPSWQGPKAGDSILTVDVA
RGS16-Gao HTS = regulators of human RGS16-Galphao interaction | O15492+P09471 | bead-based flow cytometry RGS16-Galphao binding, fluorescence; actives lie on both sides | binding response (% of control), % at 10 µM | actives 0.38% (n = 220,000);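 active means below 25% or above 175%, edge rows of some plates excepted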;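 further: Galphao activated by GDP with aluminum fluoride before binding; 100% = wells without compound and 0% = beads without RGS; some results beyond the cut were filed as inactive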
Target sequence (O15492 whole entry, looked up): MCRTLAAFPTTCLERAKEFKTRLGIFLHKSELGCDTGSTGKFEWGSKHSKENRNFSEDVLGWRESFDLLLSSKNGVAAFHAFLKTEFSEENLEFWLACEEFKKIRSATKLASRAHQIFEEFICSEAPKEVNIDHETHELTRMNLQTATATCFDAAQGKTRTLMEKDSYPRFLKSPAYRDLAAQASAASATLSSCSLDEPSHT
Target sequence (P09471 whole entry, looked up): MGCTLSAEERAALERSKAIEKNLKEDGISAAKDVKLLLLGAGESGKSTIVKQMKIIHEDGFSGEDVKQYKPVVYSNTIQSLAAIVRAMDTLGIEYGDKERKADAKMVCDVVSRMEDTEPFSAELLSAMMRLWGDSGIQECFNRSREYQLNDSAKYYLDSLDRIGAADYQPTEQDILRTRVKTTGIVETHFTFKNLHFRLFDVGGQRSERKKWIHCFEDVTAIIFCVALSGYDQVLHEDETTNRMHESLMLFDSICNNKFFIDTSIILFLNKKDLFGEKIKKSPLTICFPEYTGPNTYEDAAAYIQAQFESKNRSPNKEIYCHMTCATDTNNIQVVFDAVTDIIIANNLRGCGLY
INS promoter inh cell count = also measured in INS promoter inh; calls as there; normalized cell count, %; measured here: cell count, toxicity; reference of the scale not given here;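 cells exposed to compound for 48 h; stained nuclei by imaging scaled within each plate; lower means fewer cells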
HSV augment primary fold = second read-out of HSV augment, no call of its own (marks repeat the call); fold increase; compound at 10 µM; measured here: primary screen fold increase 10 uM; tested in PC3 cells;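 GFP signal in the first replicate; 1 = infected wells without compound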
An asterisk follows results filed as active; i = inactive; x = not tested or not shown. An unsorted share of the library; any-hit rate near 1.3%.

The first 5 entries as a preview:
molecule	PKD1 inh	INS promoter inh	INS promoter inh cell count	HSV augment	HSV augment primary fold	GALR2 ag	RGS16-Gao HTS
CN(C)S(=O)(=O)c1ccc2nnn(OCC(=O)NC34CC5CC(CC(C5)C3)C4)c2c1	1	x	x	i	1	-0.9	110
Cc1ccc(/C=C2/SC(=O)NC2=S)o1	-4	-35	80	i	1.1	x	93
C=CCN(CC=C)S(=O)(=O)c1ccc(NC(=S)NC(=O)Cc2ccc(OC)cc2)cc1	-9	x	x	i	0.78	1.1	100
O=C1c2cccnc2Nc2ccccc2N1CCCF	12	20	109	i	1	-1.3	100
CCn1cc(C(=O)O)c(=O)c2cnc(N3CCN(C(=S)NC(=O)c4ccccc4Cl)CC3)nc21	x	x	x	i	0.94	x	98

Main list, repeating the preview:
molecule	PKD1 inh	INS promoter inh	INS promoter inh cell count	HSV augment	HSV augment primary fold	GALR2 ag	RGS16-Gao HTS
CN(C)S(=O)(=O)c1ccc2nnn(OCC(=O)NC34CC5CC(CC(C5)C3)C4)c2c1	1	x	x	i	1	-0.9	110
Cc1ccc(/C=C2/SC(=O)NC2=S)o1	-4	-35	80	i	1.1	x	93
C=CCN(CC=C)S(=O)(=O)c1ccc(NC(=S)NC(=O)Cc2ccc(OC)cc2)cc1	-9	x	x	i	0.78	1.1	100
O=C1c2cccnc2Nc2ccccc2N1CCCF	12	20	109	i	1	-1.3	100
CCn1cc(C(=O)O)c(=O)c2cnc(N3CCN(C(=S)NC(=O)c4ccccc4Cl)CC3)nc21	x	x	x	i	0.94	x	98
CCCOc1cccc(C(=O)N(Cc2cccs2)C2CCS(=O)(=O)C2)c1 (stereo unspecified)	2	-18	92	i	1	0.1	94
O=C(O)/C=C/c1ccc2noc(-c3ccccc3)c2c1	10	x	x	i	1	x	104
CCOC(=O)N1CCC(NC(=O)c2cnn3ccccc23)CC1	-6	x	x	i	1	-2.3	94
CCOC(=O)C1CCCN(C(=O)c2cn(C)c(=O)c3cc(OC)c(OC)cc23)C1 (stereo unspecified)	-1	36	67	i	0.99	-0.8	101
CC(C)CCn1cnc2c(sc3nc4c(cc32)CSC(C)(C)C4)c1=O	-5	x	x	i	1	-0.8	97
Cc1cccc(Cc2c(C)nc3nc(SCC(=O)NCc4ccco4)nn3c2C)c1	-9	37	56	i	1	-0.7	97
O=C(OCC(=O)c1cccs1)c1ccc(NC(=O)c2ccco2)cc1	-5	x	x	i	0.9	-0.9	97

(continued)
molecule	PKD1 inh	INS promoter inh	INS promoter inh cell count	HSV augment	HSV augment primary fold	GALR2 ag	RGS16-Gao HTS
CC1(C)CC2(C)Nc3ccccc3N2C(=S)N1 (stereo unspecified)	0	-14	95	i	1	-0.7	95
O=C(NCc1ccc2c(c1)OCO2)C1CC(=O)N(CCc2ccccc2)C1 (stereo unspecified)	-6	x	x	i	0.89	-1.8	106
C=CCn1c(CNc2ccccc2)nnc1SCC(=O)N/N=C/c1ccc(O)cc1O	-9	x	x	i	1	-1.8	69
COc1ccc(OC)c(NC(=O)CS(=O)(=O)c2ccccc2)c1	-2	-309	57	i	0.8	-4.3	97
O=C(CCN1C(=O)c2ccccc2C1=O)Nc1cccnc1	1	-5	105	i	0.93	-2.6	106
CC(=O)c1ccc(NC(=O)C2CCCN2S(=O)(=O)c2ccc(F)cc2)cc1 (stereo unspecified)	-2	x	x	i	1.1	-2.3	105
COc1ccc(N2C(=O)c3ccc(NC(C)=O)cc3C2=O)cc1	2	x	x	i	0.87	-1.7	102
CCCC(=O)Nc1ccc2c(c1)nc(CN1CCN(C(C)=O)CC1)n2C	11	2	87	i	0.98	-1.5	97
C/C(=N\NC(=O)c1ccn(C)n1)c1ccc(NC(=O)C2CCCC2)cc1	2	71*	109*	i	0.83	-1.1	98
O=S1(=O)CCC(NC(=S)N2CCCCC2)C1 (stereo unspecified)	-2	-75	45	x	x	-0.9	87
Cc1ccccc1C(=O)NNC(=O)C12CC3CC(CC(C3)C1)C2	-5	x	x	i	0.94	x	104
FC(F)Sc1ccc(N=C2NN=C(c3ccc4c(c3)OCCO4)CS2)cc1	-9	14	99	i	0.98	-1.9	90

Copied from the list:
Entry of `CCCC(=O)Nc1ccc2c(c1)nc(CN1CCN(C(C)=O)CC1)n2C` in PKD1 inh: 11
Entry of `O=S1(=O)CCC(NC(=S)N2CCCCC2)C1` (stereo unspecified) in RGS16-Gao HTS: 87

(continued)
molecule	PKD1 inh	INS promoter inh	INS promoter inh cell count	HSV augment	HSV augment primary fold	GALR2 ag	RGS16-Gao HTS
COc1ccc(-n2nc3cc(C)c(NC(=O)c4cccnc4)cc3n2)cc1	-5	36	53	i	0.88	0.7	117
COc1ccc(CNc2nc(-c3cccnc3)nn2C(=O)C(C)C)cc1	0	-53	82	i	0.95	x	102
COc1ccc(-n2c(Cc3cc(=O)[nH]c(=O)[nH]3)nnc2SCC(=O)N2CCC(C)CC2)cc1	-9	x	x	i	0.87	0.8	105
O=C(NCc1cccnc1)C1CCC(c2ccc(Cl)cc2)CC1 (stereo unspecified)	x	x	x	i	0.91	x	107
Cc1cccc(-c2nc3ccccc3c(=O)n2NC(=O)/C=C/c2ccc([N+](=O)[O-])cc2)c1	-25	-67	109	i	1	-2.5	104
CN1C(=O)C2(NC(=O)c3ccccc3N2C)c2ccccc21 (stereo unspecified)	x	x	x	i	0.94	x	99
Cc1ccc(NC(=O)OCCNC(=O)OC(C)C)cc1	0	x	x	i	0.85	x	96
O=C(N/N=C/c1cc([N+](=O)[O-])ccc1O)c1c[nH]c2ccccc12	x	x	x	i	0.84	x	88
Nn1c(CSc2ccccn2)nc2ccccc2c1=O	-10	x	x	i	1	0.9	103
Cc1cc(NC(=O)C(C)C)ncc1NC(=O)c1ccccn1	-10	x	x	i	1	x	112
CC(=O)c1c(N2CCOCC2)nc(=O)n(-c2ccccc2)c1C	-3	-19	180	i	0.7	-1.1	110
O=C(NCC1CCCO1)C1CCN(C2CCN(C3CCCCCC3)CC2)CC1 (stereo unspecified)	-4	-47	124	i	1.1	x	109

Entries of single compounds from above. Screens in order: PKD1 inh, INS promoter inh, INS promoter inh cell count, HSV augment, HSV augment primary fold, GALR2 ag, RGS16-Gao HTS
COc1ccc(CNc2nc(-c3cccnc3)nn2C(=O)C(C)C)cc1 in the list: 0, -53, 82, i, 0.95, x, 102
Cc1ccc(NC(=O)OCCNC(=O)OC(C)C)cc1 in the list: 0, x, x, i, 0.85, x, 96
CC(=O)c1c(N2CCOCC2)nc(=O)n(-c2ccccc2)c1C in the list: -3, -19, 180, i, 0.7, -1.1, 110
O=C(N/N=C/c1cc([N+](=O)[O-])ccc1O)c1c[nH]c2ccccc12 in the list: x, x, x, i, 0.84, x, 88

Next records:
molecule	PKD1 inh	INS promoter inh	INS promoter inh cell count	HSV augment	HSV augment primary fold	GALR2 ag	RGS16-Gao HTS
C/C(CCN1CCc2nc(-c3ccccc3)c(-c3ccccc3)cc2C1)=N\O[C@@H](C)c1cc(-c2c(C)cc(C)cc2C)no1	-4	-23	83	x	x	-1.3	105
Cc1nc(C2CCC3C4CCC5=CC(=O)CC[C@]5(C)C4CC[C@]23C)cs1 (stereo partly specified)	x	x	x	i	0.95	x	99
Cc1cc(C)c2ccc(=S)[nH]c2n1	-3	-14	133	i	0.97	x	102
COc1cc(/C=C(/NC(=O)c2ccccc2)C(=O)Nc2cccc(O)c2)c([N+](=O)[O-])cc1OC	-1	x	x	x	x	-2.3	110
COc1ccc(N(CC(=O)NCc2ccncc2)S(=O)(=O)c2ccccc2[N+](=O)[O-])c(OC)c1	3	24	162	i	0.7	x	118
O=C(O)CNC(=O)CC1S/C(=N/N=C2\CSC(=O)N2)NC1=O (stereo unspecified)	-4	-79	36	i	0.9	x	98
COc1ccc(/C=C2/SC(=S)N(CCCC(=O)Nc3ccc(O)cc3)C2=O)cc1	x	x	x	i	0.81	x	101
COc1cccc(NC(=S)N(Cc2cccc(Br)c2)CC2CCC(C(=O)O)CC2)c1 (stereo unspecified)	-4	x	x	i	1.1	x	104
COc1ccc(CN2CCc3ccccc3C2)c(OC)c1OC	1	-44	75	i	1	-0.6	95
O=C(NN1C(=O)C2C3C=CC(O3)C2C1=O)c1ccccc1 (stereo unspecified)	-7	14	53	i	0.81	x	84
CCC(=O)c1ccc(OCc2ccc(C(=O)c3ccccc3)cc2)cc1	-10	x	x	i	1	x	100
c1ccc(NC2=Nc3cccc4cccc2c34)cc1	-3	-12	116	i	1.2	x	106

Continuation.
molecule	PKD1 inh	INS promoter inh	INS promoter inh cell count	HSV augment	HSV augment primary fold	GALR2 ag	RGS16-Gao HTS
NC(=O)CC(NC(=O)c1ccc(Br)cc1)c1ccc(N2CCN(c3ccc(F)cc3)CC2)c([N+](=O)[O-])c1 (stereo unspecified)	x	x	x	i	0.84	x	99
CSCCC(N=CC1=C(O)CC(C)(C)CC1=O)C(=O)O (stereo unspecified)	5	-21	177	i	0.98	-0.5	82
COc1cccc2c(Cl)c(CCCl)c(C)nc12	-7	44	88	i	1.1	x	99
CCOC(=O)C1(CCCc2ccccc2)CCN(CC(O)CO)CC1 (stereo unspecified)	-4	42	97	i	0.97	x	101
CCOC(=O)c1c(NC(=O)C(Sc2ccccc2)c2ccccc2)sc(C(=O)N(C)C)c1C (stereo unspecified)	-1	6	89	i	0.84	3.1	102
CC(C)(C)NC(=O)CSc1nc(O)cc(=O)[nH]1	20	x	x	i	1	1.6	77
CSc1cc(N2CCOCC2)nc(-c2ccccc2Cl)n1	-5	-12	135	i	1	0.3	48
COc1ccccc1CNC(=O)CSc1nc(C)cs1	-8	x	x	i	0.83	x	99
COc1cccc(OCCSc2nc3ccccc3c(=O)[nH]2)c1	-1	x	x	i	0.94	x	104
COc1ccc(/C=N/NC(=O)c2ccncc2)cc1CN1CCN(c2ccc(F)cc2)CC1	-5	-41	71	i	0.94	x	103
Cc1cc2c(nn1)CCc1nonc1-2	7	0	117	i	1.2	-1.6	103
Nc1c(C(=O)OCC2CCCO2)c2nc3ccccc3nc2n1C1CCCC1 (stereo unspecified)	6	-79	63	i	0.65	1.6	92

(further entries)
molecule	PKD1 inh	INS promoter inh	INS promoter inh cell count	HSV augment	HSV augment primary fold	GALR2 ag	RGS16-Gao HTS
COc1ccccc1NC(=O)N(CCN1CCCC1)Cc1cc2cc(C)ccc2[nH]c1=O	-3	-44	119	i	0.99	-1.1	x
O=C(CSc1nnc(-c2ccco2)o1)NC(=O)C1COc2ccccc2O1 (stereo unspecified)	-6	4	103	i	1.1	-0.4	6
CCCn1c(SCC(=O)c2[nH]c(C)c(C(C)=O)c2C)n[nH]c1=O	x	x	x	i	1.3	x	95
COc1ccccc1NC(=O)C(Sc1ccccc1)c1ccccc1 (stereo unspecified)	-7	14	107	i	1.2	-2.5	49
O=S(=O)(c1ccccc1)c1ccc(C(F)(F)F)cn1	1	29	76	i	0.9	x	108
CN1C(=S)N(c2cccnc2)C(=O)/C1=C\c1ccc(C(C)(C)C)cc1	-3	-8	189	i	0.75	x	101
Cc1ccc(Nc2ccccc2)cc1	1	-117	96	i	0.96	-0.6	100
CCC(Sc1nc2ccccc2c(=O)n1CCN1CCOCC1)C(=O)NCc1cccnc1 (stereo unspecified)	-5	43	93	i	1.1	-0.2	102
CC/C(=N\NC(=S)NC(C)C)c1ccc(OC(F)F)cc1	-7	x	x	i	0.94	x	96
CC1CCN(C(=O)c2[nH]cnc2C(=O)N[C@@H](C)C(=O)OC(C)(C)C)CC1	x	x	x	i	1	x	99
COc1ccc(/C=C2\CCn3c2nc2cc(C(=O)O)ccc2c3=O)cc1OC	x	x	x	i	1	x	105
CN(C)S(=O)(=O)c1cccc(-c2cn3ccccc3n2)c1	1	x	x	i	0.93	-0.7	109

The list continues.
molecule	PKD1 inh	INS promoter inh	INS promoter inh cell count	HSV augment	HSV augment primary fold	GALR2 ag	RGS16-Gao HTS
O=C(N/N=C/c1cccc(NC(=O)c2ccc(Cl)cc2)c1)c1ccc(O)cc1	x	x	x	i	0.73	x	103
CC(C)c1ccc2[nH]c(O)c(N=NC(=O)c3cccc(S(=O)(=O)N4CCCCC4)c3)c2c1	-2	13	107	i	0.93	0.5	100
O=C(Nc1ccccc1Cl)O/N=C(/c1ccccc1)c1ccccn1	-21	-29	81	i	1.1	-1.0	101
Cc1cc(/C=C(\C#N)C(=O)Nc2ccccc2)c(C)n1-c1ccc2c(c1)OCO2	-3	7	83	i	0.87	-0.2	92
CN1CCN(C2=NC(=O)/C(=C/c3ccccc3OS(=O)(=O)c3ccccc3)S2)CC1	x	x	x	i	0.89	x	91
O=C(CC1(O)C(=O)Nc2ccccc21)c1cccnc1 (stereo unspecified)	-3	14	71	i	0.93	-1.2	110
CNC(=S)NNS(=O)(=O)c1ccc(OC)cc1OC	-5	x	x	i	1.2	x	101
